CtBP-E1A inh: inhibitors of CtBP/E1A interaction. AlphaScreen GST-E1A/His-CtBP binding, 1536-well; active compounds read low; control for the full effect not named in the record. activity change, % (test concentration not listed). AID 651724. hit rate 0.49% among 340,000; in the data active means activity change below about -65%; inconclusive means about -30% to -65%; inactive means above about -30%; also: % is scaled to controls: 0 for no effect and ±100 for the full control effect
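Steps: dispense buffer (Tris pH 8.0, NaCl 300 mM, TCEP 1 mM, BSA, Tween 20); add 5X protein mix (GST-E1A, His-CtBP, 125 nM each); pin 23 nL compound; 2 h at 37 °C, dark; add 5X beads (50 ug/mL); 1 h; read.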
Six1-Eya2 blk: blocks human Six1 binding to Eya2; Q15475+O00167; AlphaScreen GST-Six1/His-Eya2 binding, biochemical; active compounds read low; control for the full effect not named in the record; activity change, % (no concentration beside the values); hit rate 0.56% among 360,000; in the data active = activity change below about -65%; inconclusive = about -30% to -65%; inactive = above about -30%; also: % is scaled to controls: 0 for no effect and ±100 for the full control effect
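Compounds are tested against tagged Six1 and Eya2 proteins bridged by glutathione donor and nickel acceptor beads; after a one-hour incubation at 37 °C without light, AlphaScreen emission is recorded.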
TRPML1 agonist: agonists of human TRPML1 channel | Q9GZU1 | TRPML1-expressing cells, Ca2+ dye fluorescence, FDSS; host cell line not named in the record; reference of the full effect not given here | activation, % (no concentration beside the values) | hit rate 0.12% among 410,000 | AID 624414; in the data active = activation above about 50%; inconclusive = about 30% to 50%; inactive = below about 30%; also: 0% is about no effect; the text of the record puts the active cut at 80%
Target sequence (Q9GZU1 whole entry, looked up): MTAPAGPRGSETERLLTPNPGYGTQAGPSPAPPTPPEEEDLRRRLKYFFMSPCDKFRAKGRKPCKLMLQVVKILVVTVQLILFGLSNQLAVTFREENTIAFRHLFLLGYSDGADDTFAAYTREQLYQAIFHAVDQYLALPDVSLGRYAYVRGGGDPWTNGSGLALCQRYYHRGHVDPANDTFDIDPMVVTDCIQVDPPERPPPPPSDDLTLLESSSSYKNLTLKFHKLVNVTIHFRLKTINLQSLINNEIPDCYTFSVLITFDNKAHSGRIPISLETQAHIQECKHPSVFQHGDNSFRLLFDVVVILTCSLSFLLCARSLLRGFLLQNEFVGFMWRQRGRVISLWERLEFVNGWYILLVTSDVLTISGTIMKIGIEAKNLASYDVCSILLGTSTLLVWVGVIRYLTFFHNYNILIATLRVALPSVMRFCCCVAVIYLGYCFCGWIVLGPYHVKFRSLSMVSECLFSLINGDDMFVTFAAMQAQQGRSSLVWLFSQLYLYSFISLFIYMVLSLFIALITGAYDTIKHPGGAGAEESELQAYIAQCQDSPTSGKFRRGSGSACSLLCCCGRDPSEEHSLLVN
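In this qHTS format, compounds were pin-transferred onto Ca8-dye-loaded TRPML1-DL cells induced with Tet overnight, and intracellular Ca2+ fluorescence was recorded kinetically for 110 s after a 10 s baseline. A subsequent 4uM final 54-4 (EC80) addition followed by a second 110 s read served as the antagonist phase.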
PINK1 modulator: modulators of PINK1 expression; PINK1 immunofluorescence, high-content cytometry, 24 h; Potency, µM (highest dose often 76.6 µM), without a hit: at the highest dose activation (PINK1 increase), most hits filed as activators; hit rate 0.2% among 410,000; AID 624263; active = well fitted activation curve with a large enough effect; inconclusive = small, poorly fitted or top-dose-only effect; inactive = flat fitted curve, though single readings scatter; cell line not stated here;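 also: potency is read from the fitted curve at half-maximal effect; % of control where 0% means no effect; nearly all actives have a fitted effect of over 65% in size; a mitochondrial uncoupler was the plate control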
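A stable cell line was treated with compounds at 5 concentrations for 24 hours, with CCCP as control. PINK1 levels and mitochondrial localization were measured by immunofluorescence with mitochondrial, cell and nuclear markers after fixation, read by laser-scanning cytometry.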
TRPML1 blocker: inhibitors of human TRPML1 channel. AID 624415. activity change, negative = inhibition, % (test concentration not listed). hit rate 0.02% among 390,000. TRPML1-inducible cells, Ca2+ dye fluorescence, FDSS; active compounds read low; inhibition of EC80 agonist-evoked calcium signal; in the data active means activity change below about -50%; inconclusive means about -30% to -50%; inactive means above about -30%;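 also: stimulus is agonist 54-4 at its EC80 concentration; % is scaled to controls: 0 for no effect and ±100 for the full control effect; compound concentration not given in the record; the text of the record puts the active cut at -80%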
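TRPML1-DL cells, Tet-induced overnight (~16 h, 37 °C) at 1,500 cells/well, were loaded with Ca8 no-wash dye plus quencher for 45-90 min at room temperature. Compounds were pinned during FDSS kinetic reading; agonist 54-4 at EC80 (4 uM final) then added.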
D2 agonist: human D2 receptor agonism in beta-arrestin assay | activation, % (no concentration beside the values) | hit rate 0.084% among 360,000 | DiscoveRx PathHunter D2 beta-arrestin, luminescence, 90 min; 100% = 57 uM dopamine signal | P14416 | AID 624465; in the data active = activation above about 40%; inconclusive = about 15% to 40%; inactive = below about 15%; also: compound concentration not given in the record; the text of the record calls up to 30% inactive
Target sequence (P14416 whole entry, looked up): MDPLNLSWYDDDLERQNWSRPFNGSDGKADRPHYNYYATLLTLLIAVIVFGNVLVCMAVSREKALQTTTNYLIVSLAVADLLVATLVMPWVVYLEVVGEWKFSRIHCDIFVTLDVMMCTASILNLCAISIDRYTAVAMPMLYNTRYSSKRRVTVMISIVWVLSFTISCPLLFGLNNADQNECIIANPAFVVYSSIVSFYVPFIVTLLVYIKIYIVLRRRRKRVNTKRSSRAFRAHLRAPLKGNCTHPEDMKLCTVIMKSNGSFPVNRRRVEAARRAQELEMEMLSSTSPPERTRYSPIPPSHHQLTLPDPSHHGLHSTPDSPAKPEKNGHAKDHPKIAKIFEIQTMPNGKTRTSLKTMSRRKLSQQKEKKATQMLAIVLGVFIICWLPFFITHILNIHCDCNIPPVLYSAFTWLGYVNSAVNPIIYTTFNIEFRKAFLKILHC
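Agonist mode: compounds alone added to overnight-plated D2 PathHunter cells for 90 min at 37 C, with 57 uM final dopamine (EC100) defining full response. Beta-arrestin recruitment detected by chemiluminescent reagent, read after 1 h at ambient temperature.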
Starred values were filed as active, the others as inactive; ? = inconclusive; / = not tested or not shown; [ ] = dose if it differs, or a comment.

Each structure is followed by: PINK1 modulator, Six1-Eya2 blk, D2 agonist, TRPML1 blocker, CtBP-E1A inh, TRPML1 agonist
CCNC(=S)N/N=C/c1ccc(OCc2ccc(C(=O)OC)cc2)cc1
→ 2.3%, 1, -5.8, 5, 7, -0.5
O=C1NCCN(Cc2cccc(Oc3ccccc3)c2)C1CC(=O)N1CCCCO1 (stereo not given)
→ 0.0%, 2, -1.6, 2, -20, 0.3
CCCCN(CC)CCCNC(=O)c1cc2cc3ccc(OC)cc3nc2o1
→ 0.7%, -23, -0.4, 14, -27, 0.3
Cc1ccc(S(=O)(=O)NCc2ccc(C(=O)N3CCN(c4ccccc4)CC3)cc2)cc1
→ -0.9%, -7, 13, 12, -9, 3.6
CCOc1cc2[nH]c(=O)n(Cc3ccccc3)c(=O)c2cc1OCC
→ /, 2, -0.8, 24, -4, 0.1
Cc1ccc(O)c(-c2cc(C(F)(F)C(F)F)nc(-c3ccccc3)n2)c1
→ 8.7%, 16, -3.1, 17, -1, -0.3
CCN(CC)S(=O)(=O)c1ccc(NC2CCN(Cc3ccccc3)CC2)nc1
→ -3.1%, -6, -1.0, -13, 4, 2.4
Cc1ccc(NC(=O)C(C)N2CCN(C)CC2)cc1S(=O)(=O)N1CCOCC1 (stereo not given)
→ 0.1%, 5, -0.2, -10, 6, 0.1
COc1cc(CN2CCC(Cc3ccccc3)CC2)cc(OC)c1OC
→ -1.2%, -4, -1.2, -1, -7, 0.5
COc1ccccc1-c1cc(-c2ccc(O)cc2)nc(N)c1C#N
→ 4.6%, -1, 3.0, 18, -14, 1.7
Cn1ncc2c(N3CCOCC3)ncnc21
→ -1.6%[38.3 µM], -8, -1.3, 22, -13, 0.8
COc1ccc(C#Cc2c(C=O)n(C)c3ccccc23)cc1
→ ?, 118, -7.5, 9, 114, 1.4
COc1ccc(C(=O)C(C)N(C(=O)c2ccc(Cl)cc2Cl)N2C(=O)C3C4C=CC(C4)C3C2=O)cc1 (stereo not given)
→ 6.6%[38.3 µM], -10, -1.8, -8, -9, -0.1
COc1cc2c(c(OC)c1OC)C(c1ccc(O)cc1)CC(=O)O2 (stereo not given)
→ 0.1%, 1, 0.9, 17, 4, -0.9
CCOC(=O)C1=C(O)C(=O)NC(c2ccccc2)=C(OC2CCCCC2)C1
→ 0.1%, 1, -2.5, -5, 10, 0.0
COc1ccc(N(Cc2cc3ccc(C)cc3[nH]c2=O)C(C)=O)cc1
→ -0.3%, 14, -3.8, 2, -3, 0.3
CCOc1ccccc1CNC(=O)CCCn1c(=O)c2cccn2c2cccnc21
→ 1.0%, /, /, 10, /, -0.8
Nc1ccccc1C(=O)C[C@H](N)C(=O)O
→ -0.2%, -3, -1.1, 32, 4, -0.3
S=C(Nc1cccnc1)NC1CCCCCCC1
→ 3.4%, 2, -2.3, 17, 0, -0.5
Cn1c(SCc2nc3ccccc3[nH]2)nnc1-c1cnccn1
→ 3.7%, 2, 0.1, 16, 3, 0.1
Cc1onc(-c2ccccc2)c1NC(=O)Nc1ccc(OC(F)F)cc1
→ -0.1%, 1, -1.8, -9, 0, 1.2
CCOc1ccc(NC(=O)CC(C)S(=O)(=O)c2ccc3c(c2)NC(=O)CO3)cc1 (stereo not given)
→ -0.3%, 2, -1.4, 13, 5, -0.8
CC(C)OCCCNC(=O)Cc1ccc(Br)cc1
→ -1.2%, 18, -1.4, -1, 0, -0.8
O=C(CCCCCCC(=O)c1ccccc1)c1ccccc1
→ 0.9%, 16, -1.2, 6, 5, -0.5
COc1ccc(OC)c(NC(=O)c2ccc3c(c2)CCN3S(C)(=O)=O)c1
→ 1.8%, -4, -5.1, 29, -12, -0.2
CCOc1ccc(-c2nnc3ccc(SCC(=O)Nc4cc(C)on4)nn23)cc1
→ 0.0%, -1, -4.5, -9, -1, -0.2
Cc1ccc(CCN2C(=O)CCC2(C)C(=O)NCc2cccnc2)cc1 (stereo not given)
→ 0.2%[38.3 µM], -1, -3.2, -4, -11, 0.0
CC1CCN(c2ccc(S(=O)(=O)Nc3cc(C(=O)O)cc(C(=O)O)c3)cc2[N+](=O)[O-])CC1
→ 0.0%, 1, -3.2, -27, 4, 0.3
COc1ccccc1C(=O)NNC(=O)C(=O)NCc1ccccc1
→ -0.1%, 3, -1.6, -3, 4, -0.5
O=C(CSc1nncc2ccccc12)Nc1ccc(C(=O)O)cc1
→ -1.7%, 3, -4.0, -5, -7, 0.0

3 of these compounds in another layout:
CC(C)OCCCNC(=O)Cc1ccc(Br)cc1
- PINK1 modulator: -1.2%
- Six1-Eya2 blk: 18
- D2 agonist: -1.4
- TRPML1 blocker: -1
- CtBP-E1A inh: 0
- TRPML1 agonist: -0.8
O=C(CCCCCCC(=O)c1ccccc1)c1ccccc1
- PINK1 modulator: 0.9%
- Six1-Eya2 blk: 16
- D2 agonist: -1.2
- TRPML1 blocker: 6
- CtBP-E1A inh: 5
- TRPML1 agonist: -0.5
COc1ccc(OC)c(NC(=O)c2ccc3c(c2)CCN3S(C)(=O)=O)c1
- PINK1 modulator: 1.8%
- Six1-Eya2 blk: -4
- D2 agonist: -5.1
- TRPML1 blocker: 29
- CtBP-E1A inh: -12
- TRPML1 agonist: -0.2

Next section
Each structure is followed by: PINK1 modulator, Six1-Eya2 blk, D2 agonist, TRPML1 blocker, CtBP-E1A inh, TRPML1 agonist
CC(C)(C)c1nc2scc(-c3ccc(Br)cc3)c2c(=O)o1
→ -0.5%, -1, -2.0, 5, 8, 0.3
O=C(O)CC1=C(O)C(=O)N(c2ccccc2)C1c1ccc(Br)cc1 (stereo not given)
→ -0.9%, -1, -0.6, 0, 4, -0.5
CC1Cc2ccccc2N1C(=S)NC(=O)c1cccc(Br)c1 (stereo not given)
→ 16%, -6, -2.4, 25, 4, -0.9
COc1cc(OC)cc(C(=O)Nc2cccnc2)c1
→ 2.2%, -11, -1.2, 4, 2, -0.2
CCOc1ccccc1Oc1c(C)oc2cc(OC(=O)N3CCOCC3)ccc2c1=O
→ -0.8%, 6, -6.6, 39, -2, -1.1
O=C(CC12CC3CC(CC(C3)C1)C2)NC(=S)NCc1ccccc1
→ 11%, 2, -0.4, ?, 5, 0.6
CC(OC(=O)CCc1cc(C(C)(C)C)c(O)c(C(C)(C)C)c1)C(=O)NC1CC1 (stereo not given)
→ 0.4%, -4, -2.8, 4, 8, 0.4
COc1ccc([N+](=O)[O-])cc1NC(=O)Cc1ccccc1Cl
→ -0.7%, 3, -1.4, 24, 2, 3.0
C=CCSc1nnc(CSc2nc3sc4c(c3c(=O)[nH]2)CCCC4)n1-c1ccccc1
→ 0.7%, -6, -8.3, -3, -1, 2.4
CCC(Sc1nnc(C)n2c1cc1sccc12)C(=O)Nc1ccccc1F (stereo not given)
→ 4.5%, /, /, 34, /, 0.9
O=C(NC1CCCC1)c1cc(-c2ccccc2)on1
→ 4.8%, 5, 2.3, 17, 7, 1.0
CCC(C)NC(=O)Cn1cnc2sc(C)c(S(=O)(=O)N3CCN(c4ncccn4)CC3)c2c1=O (stereo not given)
→ 3.3%, 14, -1.5, 5, -1, -0.1
O=C(OCC(=O)c1ccc[nH]1)c1ccc(S(=O)(=O)C(F)F)cc1
→ 2.1%, -2, -3.4, 11, 5, -0.8
Cn1c(=O)cc(OCC(=O)N2CCCc3ccccc32)c2ccccc21
→ 2.8%[38.3 µM], -2, -3.2, -2, -1, 0.6
CSCCC(NC(N)=O)C(=O)Nc1cccc(C#N)c1 (stereo not given)
→ 1.9%, 8, 0.8, -14, 4, 0.0
O=C(NC1CCCCC1)C(c1ccncc1)N(C(=O)c1csnn1)c1ccc(F)cc1 (stereo not given)
→ -2.7%, 4, -1.2, -13, -22, 1.2
COc1ccc(N(C(=O)c2cccnc2)S(=O)(=O)c2ccc3c(c2)n(C)c(=O)n3C)cc1
→ -1.7%, 2, -4.0, 29, 5, -0.4
O=C(CN1CCCc2ccccc21)NC(=O)NCc1ccco1
→ 2.8%[38.3 µM], -13, 0.3, -1, -19, 1.0
CCOC(=O)c1csc(NC(=O)CSc2nnc(C3CC3)n2C)n1
→ ?, 5, 1.6, -17, -3, 2.8
CCN1/C(=C/c2ccc3cc(C)ccc3[n+]2CC)Sc2ccc3sccc3c21
→ ?, -4, 0.3, /, -11, /
CCc1nn(CC(=O)NCc2ccco2)c(=O)c2cc3c(OC)cccc3n12
→ 1.7%, /, /, -3, /, -1.3
Cc1cc(C)n2c3c(c(C#N)c2n1)CCCC3
→ -2.5%, 0, -2.7, 3, -3, 2.3
COc1ccc(C(=O)COC(=O)C(CCSC)NC(=O)COc2ccccc2)c(OC)c1 (stereo not given)
→ 0.6%, -8, -1.5, 25, -9, 0.4
NC(=O)C1CCN(C(=O)CCSc2ccccc2)CC1
→ -1.6%, 3, -6.2, -9, 1, 0.4
COc1ccc2[nH]c3c(c2c1)CCN1C(=O)N([C@@H](C)C(=O)NCC2CCCO2)C(=O)[C@]31C (stereo not given in full)
→ 0.2%, -7, -1.8, /, -7, /
O=C(/C=C/Nc1cccc([N+](=O)[O-])c1)c1ccco1
→ -5.9%[38.3 µM], -10, -2.1, -8, -8, -0.2
COc1ccc(-c2cc(NC=O)c3ncc(-c4cccc(C(=O)N(C)C)c4)n3c2)cn1
→ 3.1%, -24, -1.9, /, -15, -0.4
CCN(CC)S(=O)(=O)c1ccc2c(c1)N(CC(=O)N1CCN(c3cc(Cl)ccc3C)CC1)C(=O)CO2
→ 2.3%, /, /, -1, /, 0.6
CCCCC(=O)NC(=S)NNC(=O)c1ccc(OC)cc1
→ 2.9%, -10, -9.9, 3, -4, 3.0
Cc1ccc2nc3c(c(Nc4ccc(O)cc4)c2c1)CCC3
→ 3.6%, -6, -1.7, 41, /, 1.6
Cc1cccc(-c2ocnc2C(=O)Nc2ccccc2NC(=O)c2ccccn2)c1
→ -0.5%, -1, 1.9, 1, -2, 5.4
Cc1cccc(OCC(=O)Nc2ccc(S(=O)(=O)Nc3cc(C)nc(C)n3)cc2)c1
→ 2.2%, -4, -24, 12, -1, 1.3
Cc1ccc(S(=O)(=O)C2(C(=O)NCCc3ccccc3)CC2)cc1
→ 1.1%, 9, 6.0, 36, 4, 0.9
Cc1ccc(-c2cc(C(=O)N3CCc4ccccc4C3)[nH]n2)cc1C
→ 9.7%, 7, 1.3, 5, /, -0.4
Cc1ccc(OCCNC(=O)c2cccc(S(=O)(=O)NCc3ccccc3)c2)cc1
→ -0.7%, -1, -0.8, -1, 3, 0.3
CC1=C(c2ccc(C)cc2)S(=O)(=O)N(CC(=O)O)C1=O
→ -0.6%[38.3 µM], 5, -2.3, 0, 13, -0.2
C=C1CC(C(=O)N/N=C/c2ccccc2)C1
→ -0.3%, 8, -4.4, 17, 6, 0.5

A different layout for some results above.
Structure,PINK1 modulator,Six1-Eya2 blk,D2 agonist,TRPML1 blocker,CtBP-E1A inh,TRPML1 agonist
Cc1cccc(OCC(=O)Nc2ccc(S(=O)(=O)Nc3cc(C)nc(C)n3)cc2)c1,2.2%,-4,-24,12,-1,1.3
C=C1CC(C(=O)N/N=C/c2ccccc2)C1,-0.3%,8,-4.4,17,6,0.5

Screening results: PubChem BioAssay, National Center for Advancing Translational Sciences (NCATS)

Compounds as they come; overall some 1% were active at least once.
